Sa helicase inh: blocks Staphylococcus aureus DNA helicase. inhibition, %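 (tested at about 80 µM)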. hit rate 0.05% among 120,000. purified S. aureus helicase, fluorescence unwinding assay; about half of the hits fall short of the stated cut;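 active = both duplicates at 50% or more, or one of them with a favoured structure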;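 note: 0% = mean of negative control wells and 100% = mean of positive control wells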
MgrA DNA FP: modulators of Staphylococcus aureus MgrA DNA binding. inhibition, %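 (about 10 µg/mL by stock and volumes)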. AID 602314. hit rate 0.13% among 84,000. fluorescence polarization;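 active = above 50% in either of two replicates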;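 note: 0% = protein plus DNA without compound and 100% = DNA alone without protein; higher means less MgrA bound to DNA so lower polarization; one replicate is shown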
An asterisk follows results filed as active; nt = not tested or not shown; & = joins results of further samples. The list is partial; the hit share may differ from the screen's.

Sa helicase inh	MgrA DNA FP	mol
6	2.1	CN1C(=O)S/C(=C\c2cc(Cl)c(OCC(=O)O)c(Cl)c2)C1=O
6	5.3	CNS(=O)(=O)c1cc(C(=O)N2CCCCC2)ccc1OC
7	nt	O=C(COC(=O)c1ccc(O)cc1)Nc1nccs1
nt	0.0	CCCCC(=O)N1c2ccccc2NC2=C(C(=O)CC(C)(C)C2)C1c1ccc(OC)cc1OC (stereo not drawn)
nt	0.1	C(=Nc1cccc2ccccc12)c1ccccc1
4	nt	CCOC(=O)c1[nH]c(C)c(C(=O)OCC(=O)c2cc(C)n(-c3nccs3)c2C)c1C
16	4.1	CCOC(=O)c1cc(S(=O)(=O)N(C)Cc2ccccc2)cn1C
8	-1.2	Cc1ccc(S(=O)(=O)Nc2cccc3ccccc23)cc1
nt	6.1&3.5	COc1cc2nc(N(C)CCCNC(=O)C3CCCO3)nc(N)c2cc1OC (stereo not drawn)
-13	0.8	CSc1nc2cc(Oc3ccc4ccccc4c3)c(Cl)cc2[nH]1
16	nt	O=C(Nc1ccc(F)cc1)C(Sc1nnc(C2CC2)o1)c1ccccc1 (stereo not drawn)
-5	nt	O=C(O)c1ccccc1SCc1cn2ccccc2n1
nt	0.2	Cc1cc(C(=O)CSc2nccc(-c3cccs3)n2)ccc1Cl
10	1.6	COc1ccc(NC(=O)N2CCn3c2nc2ccccc23)cc1
11	-3.6	Cc1c(CNC2CCCc3ccccc32)c(C(=O)O)c(C)n1Cc1c(F)cccc1Cl (stereo not drawn)
12	nt	O=c1[nH][nH]c(=O)c2cc(N3CCCC3)ccc12
5	0.2	CC(C)Cn1cc(C(=O)N2CCCC2)c2c3ccccc3n(C)c2c1=O
4	-0.5	O=c1c2sccc2[nH]c(=S)n1CC1CCCO1 (stereo not drawn)
1	nt	O=C(COC(=O)C1(c2ccc(F)cc2)CCCC1)N1CCN(C(=O)c2ccco2)CC1
9	-1.1	CCc1noc(C)c1C(=O)Nc1cccc(Cn2cc(Cl)cn2)c1
0	-1.4	CCc1ccc(C2C(C#N)=C(N)N(N3CCOCC3)C3=C2C(=O)CC(C)(C)C3)cc1 (stereo not drawn)
10	0.3	Cc1cccc(NC(=O)C2CC(=O)NC(Nc3nc4ccccc4s3)=N2)c1 (stereo not drawn)
-15	nt	CC1CN(CC(O)COCc2ccc(Cl)cc2)CCN1CC(O)COCc1ccc(Cl)cc1 (stereo not drawn)
2	-0.7	O=C(CSc1nc2ccccc2s1)NCCC12CC3CC(CC(C3)C1)C2
8	nt	Cc1ccc(CNC(=O)Cn2cccc2)cc1

The last 2 entries of the part above lead into the next.
Sa helicase inh	MgrA DNA FP	mol
2	-0.7	O=C(CSc1nc2ccccc2s1)NCCC12CC3CC(CC(C3)C1)C2
8	nt	Cc1ccc(CNC(=O)Cn2cccc2)cc1
-6	nt	Cc1nn(-c2ccccc2Cl)c2nc(-c3ccco3)cc(C(=O)NN)c12
-3	0.7	CCN1C(=O)CC(N2CCC(Nc3ccc(OC)cc3)CC2)C1=O (stereo not drawn)
nt	0.3	Cc1cc(C)n2nc(-c3ccc(C(C)(C)C)cc3)cc2n1
6	nt	CCc1ccc(-c2nc(CSCC(=O)N3CCN(c4ccccc4)CC3)c(C)o2)cc1
-7	nt	CCOC(=O)c1c(C)oc2ncnc(NC(C(=O)OCC)C(C)O)c12 (stereo not drawn)
-21	nt	CCOc1ncccc1C(=O)N(CC)CC(=O)NCc1ccc(Cl)cc1
24	3.1	O/C(=C\c1nc2ccccc2[nH]1)C(F)(F)F
1	-3.5	CCCN1CCC(Nc2ccc(SC)cc2)CC1
2	-0.3	O=C(O)c1ccc(/C=N/N2C(=O)c3cccc4cccc(c34)C2=O)cc1
15	4.4	CCOc1ccc2[nH]c(S(=O)(=O)CC)nc2c1Cl
4	-2.0	NC(=O)C(F)(F)c1ccccc1
14	nt	S=C1NC2Nc3ccccc3C2=NN1CC1CCCO1 (stereo not drawn)
-21	0.9	CN(C)c1ccc(NC(=O)COC(=O)c2cc(Br)ccc2Cl)cc1
-13	0.9	Clc1ncnc2c1oc1ccccc12
6	nt	CCOC(=O)Nc1ccc2c(CN3CCN(S(=O)(=O)c4ccccc4)CC3)cc(=O)oc2c1
1	nt	COCCn1c(SCC(=O)NC(=O)CN2CCCC2=O)nc2ccccc2c1=O
nt	-0.8	CC(=O)NC1C(=O)Nc2ccccc2S(=O)(=O)C1c1ccccc1 (stereo not drawn)
4	1.0	Cc1cccc(OCc2nnc(SCC(=O)N(C(C)C)C(C)C)n2Cc2ccco2)c1C
-6	-1.2	CC1=Nc2cccc3cccc(c23)N1c1ccccc1
-26	nt	CCc1nnc2n1N=C(c1ccc(-c3ccc(Cl)cc3Cl)o1)CS2
5	nt	Cc1nc2cc(NC(=O)CCS(=O)(=O)c3ccccc3)ccc2s1
nt	3.0	CCOC(=O)c1cnc(SCC(=O)c2ccc(Cl)cc2)[nH]1
11	nt	COCCn1c(C)cc(C(=O)COC(=O)Cn2c(C)csc2=O)c1C
10	nt	CCOc1cc(-c2noc(CCCC(=O)N3CCOCC3)n2)cc(Br)c1OC
5	nt	CCOC(=O)N1CCC(N2CCCC(C(=O)N3CCCC3)C2)CC1 (stereo not drawn)

In the list so far, these have an NH in an aromatic ring:
Sa helicase inh	MgrA DNA FP	mol
4	nt	CCOC(=O)c1[nH]c(C)c(C(=O)OCC(=O)c2cc(C)n(-c3nccs3)c2C)c1C
-13	0.8	CSc1nc2cc(Oc3ccc4ccccc4c3)c(Cl)cc2[nH]1
12	nt	O=c1[nH][nH]c(=O)c2cc(N3CCCC3)ccc12
4	-0.5	O=c1c2sccc2[nH]c(=S)n1CC1CCCO1 (stereo not drawn)
24	3.1	O/C(=C\c1nc2ccccc2[nH]1)C(F)(F)F
15	4.4	CCOc1ccc2[nH]c(S(=O)(=O)CC)nc2c1Cl
nt	3.0	CCOC(=O)c1cnc(SCC(=O)c2ccc(Cl)cc2)[nH]1

(list continues)
Sa helicase inh	MgrA DNA FP	mol
14	nt	CCN(CC)Cc1c(O)ccc2c(=O)c(-c3ccccc3)coc12
11	-3.4	O=C(Nc1ccn(C2OC(CO)C(O)C2O)c(=O)n1)c1ccccc1 (stereo not drawn)
12	0.8	CC1CCN(c2ccc(NC(=O)c3ccccc3)cc2)CC1
11	1.3	CC1(C)CC(=O)c2c(Cc3ccccc3)noc2C1
8	-1.9	O=C(NCc1ccco1)Nc1c[nH]c2ccc(F)cc2c1=O
-3	nt	O=C(COc1ccc(Br)cc1CO)NCC(F)(F)F
5	7.0	CC(=O)Nc1ccc(NC(=O)CCSc2ccccc2)cc1
21	nt	CC/C(=N\NC(=O)c1ccncc1)c1cccc(Cl)c1
8	1.1	CCOc1ccc(N(CC)S(=O)(=O)c2cccc3nsnc23)cc1
9	28	O=C(/C=C/c1ccco1)C1(O)CCCCC1
-12	1.9	O=S(=O)(NN1CCOCC1)c1ccc2ccccc2c1
15	nt	N#Cc1c(N)n(-c2cccc(N)c2)c2nc3ccccc3nc12
-9	-0.2	Cc1nn2c(-c3ccccc3)nnc2c2ccccc12
7	nt	CCOC(=O)c1c(C)[nH]c(C)c1C(=O)COC(=O)c1ccc(Cl)c(S(N)(=O)=O)c1
-7	nt	CC(C)(C)NC(=O)[C@@H]1Cc2ccccc2CN1
-19	nt	Cc1oc2c(c1C(=O)N1CCc3ccccc31)C1=NCCN1C=N2
24	nt	Cc1cc(C)n(C(C)CC(=O)NC2CCC(C)CC2)n1 (stereo not drawn)
27	3.1	O=C1C(c2ccccc2)=Nc2ccccc21
3	-1.1	COc1ccc(-c2c3c(nc4sc(C(=O)N5CCCCCC5)c(N)c24)CC(C)(C)CC3=O)cc1
14	2.5	NC(=O)c1c(N)c(C(N)=S)n2c1CCC2
2	1.6	C=CCNS(=O)(=O)c1ccc(C)cc1
7	nt	COc1ccc(NC(=O)CN2CC(C)OC(C)C2)cc1OC (stereo not drawn)
15	-1.7	CN(C(=O)c1ccccc1)c1ccc(OCC(=O)N2CCc3ccccc3C2)cc1
-9	nt	O=C(CCn1c(=O)oc2ccccc21)N(Cc1ccccc1)c1ccccn1
22	-2.1	Cc1ccccc1Cn1c(Cc2ccccc2)nc2ccccc21

Sa helicase inh	MgrA DNA FP	mol
nt	0.1&0.3	CCCCC(CC)CN1CN(CC(CC)CCCC)CC(C)(N)C1 (stereo not drawn)
12	-0.8	O=C(Cn1cccc1C(=O)c1ccccc1)NCc1ccccn1
nt	-2.0	COc1cc(C(F)(F)F)c(C(=O)N(C)Cc2ccc(Cl)c(Cl)c2)cn1
1	nt	CCOC(=O)c1oc2ccccc2c1NC(=O)c1cccs1
14	nt	O=C(Nc1nc2ccccc2s1)c1ccc(Cl)s1
nt	-1.2	CN1Cc2c(N3CCOCC3)nc3sc(C(=O)c4ccccc4)c(N)c3c2CC1(C)C
nt	-1.4	NC(=O)C1CCN(c2ncccn2)CC1
-20	nt	O=C(CCn1c(=O)[nH]c2ccsc2c1=O)Nc1ccc(F)c(F)c1
6	nt	CC1(C)C2CCC1(C)C(OC(=O)CSc1nc(N)cc(=O)[nH]1)C2 (stereo not drawn)
nt	2.1	COCCOC(=O)C1=C(C)NC2=C(C(=O)CC(c3ccc(OC)cc3)C2)C1c1ccc(O)c(OC)c1 (stereo not drawn)
14	nt	CCn1cc(C2=NOC(C(=O)NCc3ccccc3)C2)c(C)n1 (stereo not drawn)
20	nt	COc1cccc(CNC(=O)c2ccc3c(c2)N(C)CCS3)c1
-8	nt	COc1cccc(C(=O)N(Cc2nc(-c3ccccc3)no2)C(C)C)c1
0	0.0	S=c1nc(-c2ccccc2)oc2c1CCCC2
22	nt	CC(C)NC(=S)N/N=C/c1cn(-c2ccccc2)nc1-c1cccs1
5	nt	CCC(C)Cc1c(C)sc2[nH]c(=S)[nH]c(=O)c12 (stereo not drawn)
15	-0.1	CC(C)CNS(=O)(=O)c1ccc(S(=O)(=O)N2CCN(c3ccccc3)CC2)cc1
nt	-1.3	CCCCCSc1ncn[nH]1
nt	0.2	O=C(Cn1nnc(N2CCCCC2)n1)c1ccc(Cl)c(Cl)c1
5	nt	CCC1SC(CC)C(=O)N(CC(=O)Nc2ccccc2)C1=O (stereo not drawn)
-11	nt	O=C(NCCN1C(=O)S/C(=C\c2ccc(OC(F)F)cc2)C1=O)C1COc2ccccc2O1 (stereo not drawn)
18	-30	O=C(OC(C(=O)NC1CCCC1)c1ccccn1)c1cccs1 (stereo not drawn)
0	-2.0	O=C(O)CSc1nc2ccc(Br)cc2[nH]1
nt	1.2	Oc1ccc(OCc2ccccc2)c(F)c1
-2	nt	CC1(C(=O)N2CCOCC2)Cc2ccccc2C(=O)O1 (stereo not drawn)

Sa helicase inh	MgrA DNA FP	mol
nt	-0.8	CC(=O)N/C(=C\c1ccc(NC(C)=O)cc1)C(=O)O
-2	-3.0	CCOC(=O)c1cnc(Nc2nc3ccccc3o2)nc1CN1CCN(c2ccccc2)CC1
7	nt	O=C(CCOc1ccccc1)Nc1nnc(-c2ccc(Cl)cc2)o1
nt	1.4	COc1ccc(CC(=O)NCc2cccc(Cl)c2)cc1OC
20	-0.6	O=C(OCc1c(Cl)nc2sccn12)c1ccc(F)cc1Cl
8	nt	CCCN1C(=O)/C(=N\OCc2ccc(C#N)cc2)c2ccccc21
-2	4.4	CCOc1cccc(C=Nc2ccc(Br)cn2)c1O
7	nt	O=c1cc(Cl)c2ccccc2o1
-31	nt	C/C(=N\OC(=O)Nc1c(-c2c(Cl)cccc2Cl)noc1C)C(C)(C)C
-3	-0.6	Cn1c(SC2CCOC2=O)nc2ccccc2c1=O (stereo not drawn)
28	nt	Cc1cccc(CN2CCC(CNc3ncnc4onc(-c5ccc(F)cc5)c34)CC2)c1
10	-0.4	COc1cc(/C=N/n2cnnc2)ccc1OCC(=O)N1CCOCC1
-3	nt	CN(C)c1ccc(NC(=O)NCC2CCCC(CNC(=O)Nc3ccc(N(C)C)cc3)C2)cc1 (stereo not drawn)
1	nt	O=C(N/N=C/c1ccccc1O)NC12CC3CC(CC(C3)C1)C2
-18	nt	COC(=O)c1sccc1NC(=O)CC1C(=O)NCCN1C(=O)Nc1ccccc1 (stereo not drawn)
nt	0.0	Cc1ccc(Nc2cc3sc4ccccc4[nH]c3c3c(=O)c4ccccc4c(=O)c23)cc1
8	-1.2	COc1ccc(-n2nc(C(=O)NCC(=O)NC3CCCC(C)C3C)c3ccccc3c2=O)cc1 (stereo not drawn)
5	nt	O=c1nc(NCc2ccccc2)cn[nH]1
-6	nt	O=S(=O)(c1ccc(NCCc2ccccn2)nc1)N1CCCC1
nt	1.9	COc1ccccc1/C=C1\SC(=S)N(CCC(=O)OCCN(C)C)C1=O
6	nt	CC(C)Cc1cc(C(=O)Nc2sc3c(c2C#N)CCC3)no1
-4	nt	COc1ccc(C(=S)N2CCN(C(N)=S)CC2)cc1
9	nt	COc1ccc(NC(=O)c2cccnc2Nc2cccc(F)c2)cc1
4	6.3	S=c1nc[nH]c2c1ncn2CN1CCCCC1
0	nt	O=C(Cn1c(=O)n(-c2ccc(F)cc2)c(=O)c2oc3ccccc3c21)NC1CCCCC1
4	nt	Cc1ccc(C(NC(=O)C(C)C)c2cc(Cl)c3cccnc3c2O)cc1 (stereo not drawn)
5	nt	Cc1cc2c(cc(C(=O)N3CCC(C(=O)NCc4ccc5c(c4)OCO5)CC3)n2Cc2c(F)cccc2Cl)o1

Exported in CSV form: part of the list above
SMILES,Sa helicase inh,MgrA DNA FP
Cc1cccc(CN2CCC(CNc3ncnc4onc(-c5ccc(F)cc5)c34)CC2)c1,28,nt
O=C(N/N=C/c1ccccc1O)NC12CC3CC(CC(C3)C1)C2,1,nt
CN(C)c1ccc(NC(=O)NCC2CCCC(CNC(=O)Nc3ccc(N(C)C)cc3)C2)cc1 (stereo not drawn),-3,nt
Cc1ccc(Nc2cc3sc4ccccc4[nH]c3c3c(=O)c4ccccc4c(=O)c23)cc1,nt,0.0
C/C(=N\OC(=O)Nc1c(-c2c(Cl)cccc2Cl)noc1C)C(C)(C)C,-31,nt

Compound activity as filed in PubChem BioAssay.
